High-throughput results deposited in PubChem by Johns Hopkins Ion Channel Center.
KCNQ2 block: KCNQ2 potassium channel inhibitors, primary screen, cell-based, CHO-K1, FluxOR thallium flux, B-score (AID 2156); 1.1% of 310,000 active; 20 min; active compounds read low; only compounds with negative scores are shown here; some inactives read as strong as hits; B-score at 10 µM; O88943;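 active means fluorescence ratio B-score at most minus 3 library SDs, with starting brightness B-score within 2 library SDs, cut at about -5.5 in these data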
Target sequence (O88943 whole entry, looked up): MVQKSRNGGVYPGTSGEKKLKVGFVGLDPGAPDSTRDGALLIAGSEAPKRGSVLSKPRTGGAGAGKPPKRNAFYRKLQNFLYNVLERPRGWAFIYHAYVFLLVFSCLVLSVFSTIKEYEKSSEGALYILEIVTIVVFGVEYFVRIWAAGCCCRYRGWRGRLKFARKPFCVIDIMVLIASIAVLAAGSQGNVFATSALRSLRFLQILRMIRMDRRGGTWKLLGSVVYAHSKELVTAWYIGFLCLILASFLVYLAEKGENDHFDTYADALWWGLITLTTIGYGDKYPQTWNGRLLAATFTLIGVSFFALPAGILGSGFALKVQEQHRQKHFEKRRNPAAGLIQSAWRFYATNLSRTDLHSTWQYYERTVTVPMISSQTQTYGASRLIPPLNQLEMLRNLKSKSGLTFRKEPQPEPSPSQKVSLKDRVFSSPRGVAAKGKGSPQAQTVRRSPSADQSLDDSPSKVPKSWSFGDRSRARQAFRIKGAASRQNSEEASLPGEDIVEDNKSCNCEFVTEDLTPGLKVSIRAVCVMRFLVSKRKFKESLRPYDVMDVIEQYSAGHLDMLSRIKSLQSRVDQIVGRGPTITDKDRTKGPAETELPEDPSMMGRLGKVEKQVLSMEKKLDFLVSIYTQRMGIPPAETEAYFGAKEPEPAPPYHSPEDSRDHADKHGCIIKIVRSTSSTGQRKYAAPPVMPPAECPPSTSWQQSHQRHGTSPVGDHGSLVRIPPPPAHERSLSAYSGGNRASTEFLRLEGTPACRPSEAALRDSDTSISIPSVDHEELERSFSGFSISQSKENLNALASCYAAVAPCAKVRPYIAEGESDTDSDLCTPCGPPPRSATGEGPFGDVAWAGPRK
KCNQ2 block baseline: second read-out of KCNQ2 block, no call of its own (marks repeat the call); B-score; measured here: initial fluorescence intensity artifact check;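 brightness before thallium and not channel activity; 0 = typical well and far values either way flag optical interference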
Starred values were filed as active, the others as inactive; i = inactive. These rows are one share of the data; rates above refer to the full screens.

KCNQ2 block	KCNQ2 block baseline	SMILES
i	0.73	CCOc1ccc(CC(=O)Nc2cc(=O)n(C)c(=O)n2C)cc1
i	0.21	CCCCCCCC(=O)N/N=C(/C)c1c(O)cc(C)oc1=O
i	-0.21	O=C(NNc1cccc(Cl)n1)c1c(F)cccc1F
i	1.2	CC1CCCN(c2ccc(C(=O)OCC(=O)N3c4ccccc4Sc4ccccc43)cc2[N+](=O)[O-])C1 (stereo not drawn)
i	0.02	CN1Cc2cccc3c2C(Cc2ccccc2S3)C1 (stereo not drawn)
i	0.11	Cc1c(O)ccc(C(=O)CN2CCN(Cc3ccc4c(c3)OCO4)CC2)c1O
i	0.27	Cc1cccc(C(=O)Nc2ccc(NC(=O)Cc3ccc(Cl)cc3)cc2)c1
i	0.91	CCC(CC)COC(=O)C1=C(C)NC(=O)NC1c1cc(OC)ccc1OC (stereo not drawn)
i	-0.63	COc1ccc(-n2c(SC3CCOC3=O)nc3ccccc3c2=O)cc1Cl (stereo not drawn)
i	3	Cc1nc2ccc(C(=O)NCc3ccc4c(c3)OCO4)cc2s1
i	2.1	O=C(NCc1cccnc1)C1CCN(S(=O)(=O)N2CCC3(CC2)OCCO3)CC1
i	0.62	O=C(NCCC1=CCCCC1)c1coc(=O)c(Br)c1
i	0.37	OC(CC1CC12c1ccccc1-c1ncccc12)(c1ccccc1)c1ccccc1 (stereo not drawn)
i	2	CCNc1nc(Cl)nc(N(NC(C)=O)C(C)CC)n1 (stereo not drawn)
i	0.55	CCOC(=O)CSc1cc(C)nc2ccc(OC)cc12
i	-1.7	CCOc1ccc(CN(C)C(=O)CNC(=O)c2ccc(Br)o2)cc1OC
i	-0.89	COc1cc([N+](=O)[O-])ccc1NC(=O)CSc1nncn1-c1cccnc1
i	0.05	CCN(CC)C(=O)C1CCCN(c2ccc([N+](=O)[O-])cc2/C=N/NC(=O)c2cccc(O)c2)C1 (stereo not drawn)
i	-0.05	COc1cccc(NC(=O)CSc2nnc(-c3cc(C)n(-c4ccccc4)c3C)o2)c1
i	0.81	CCC(=O)N1c2ccccc2NC2=C(C(=O)CC(C)(C)C2)C1c1cccnc1 (stereo not drawn)
i	1.1	CCn1cc(C(C)(C)C)c(C#N)c1NC(C)=O
i	0.04	COc1ccc(N2C(=O)N3[C@H](c4ccc(Cl)cc4)[C@@H]4C(=O)N(C5CCCCC5)C(=O)[C@@H]4[C@]3(C)C2=O)cc1
i	-1.6	CC(C)(C)c1ccc(C(=O)COC(=O)CN2C(=O)NC3(CCCC3)C2=O)cc1
i	-0.85	Cc1ccc(C(=O)N/N=C\c2ccc([N+](=O)[O-])o2)cn1
i	0.73	CCN(CC)N=Nc1ccc(S(=O)(=O)Nc2nc(C)cc(C)n2)cc1
i	-2.5	Cc1ccc2nc(C)c3c(c2c1)SCC3
i	0.91	Cn1cc(S(=O)(=O)Nc2cccc3ccccc23)c(=O)n(C)c1=O
i	-0.73	CCOC(=O)N1CCN(C(=O)C2CCN(C(=O)c3ccc([N+](=O)[O-])cc3)CC2)CC1
i	0.05	O=C(NCCC1CCCCN1S(=O)(=O)c1ccc(F)cc1)C(=O)Nc1ccccc1 (stereo not drawn)
i	-0.32	COc1ccc(S(=O)(=O)N2CCCOC2CNC(=O)C(=O)NCc2ccccn2)cc1 (stereo not drawn)
i	0.02	CC(=O)Nc1ccccc1C(=O)C(=O)Nc1cccc(C(=O)NCC2CCCO2)c1 (stereo not drawn)
i	6.1	O=C1OC(c2cccs2)=N/C1=C\c1ccc(-c2ccccc2Cl)o1
i	0.8	CCN(Cc1ccccc1)C(=O)c1ccc(C(=O)N(CC)Cc2ccccc2)cc1
i	-0.1	Cc1nc2ccccc2c2c1C(=O)N(Cc1cccnc1)C2=O
i	-0.8	CCc1ccc(-c2cc(C(F)(F)F)n3nc(C(=O)Nc4c(C)nn(Cc5ccc(F)cc5)c4C)cc3n2)s1
i	0.05	COCC(=O)N1CCCC(C(=O)c2ccc3c4c(cccc24)CC3)C1 (stereo not drawn)
i	-0.03	O=C(CSC1CS(=O)(=O)c2cc([N+](=O)[O-])ccc21)NNC(=O)c1ccc(Cl)cc1 (stereo not drawn)
i	0.41	O=C(NCCCN1CCOCC1)C1CCN(S(=O)(=O)c2ccccc2)CC1
-6.7*	-1.4*	COc1ccc(CNC(=O)CN(Cc2ccc(C)cc2)S(=O)(=O)c2ccc(Cl)cc2)cc1
i	2.4	CCn1cc(SCC(=O)NCC2CCCO2)c2ccccc21 (stereo not drawn)
i	-0.01	CN(C)c1ccc(NC(=O)c2cccc([N+](=O)[O-])c2)c2ccccc12
i	-1.2	Cc1nc(-c2ccc(Cl)cc2)sc1C1(C)CC(c2ccc(OC(F)(F)F)cc2)=NO1 (stereo not drawn)
i	-1.5	Nc1cc(=O)[nH]c(SCC(=O)N2N=C(c3ccc4ccccc4c3)CC2c2ccccc2)n1 (stereo not drawn)
i	0.25	CC1(C)NC(=O)N(CC(=O)OCC(=O)Nc2cc(S(=O)(=O)N3CCCCC3)ccc2Cl)C1=O
i	-0.75	COc1ccc(-c2csc(NC3=NCCCCC3)n2)cc1
i	2	COc1ccc(C(=O)n2ncc(C#N)c2N)cc1
i	2.8	CCSCCNC(=O)c1cc(-n2cnnc2)ccc1Cl
i	-0.32	COc1ccc(/C=C/C(=O)Oc2ccc(/C=N/NC(=O)c3ccccc3)cc2)cc1OC
i	-0.12	O=C(Nc1cccnc1)c1ccc2ccccc2c1O
i	-1.1	CCN(c1ccccc1)S(=O)(=O)c1cccc(C(=O)NCC(c2cccs2)N2CCOCC2)c1 (stereo not drawn)
i	0.44	Cc1ccc(C(=O)OCc2cn3ccccc3n2)cc1
i	1.2	O=C(Nc1ccccc1)c1ccc(NC(=O)c2cccs2)cc1
i	-0.48	O=C(NCC1CCOCC1)C1CCC(=O)N(Cc2cccc(C(F)(F)F)c2)C1 (stereo not drawn)
i	1.1	Cc1cc(NC(=O)c2ccc3c(c2)OCCO3)ccc1NC(=O)c1ccco1
i	0.01	CC(C)NC(=O)NC(=O)CSc1nncs1
i	-1.3	COc1ccc2[nH]c(=O)c(CN(CC3CCCO3)C(=S)Nc3cccc(C)c3)cc2c1 (stereo not drawn)
i	-1.9	COc1ccc(OC)c(CNC(=O)C2CCCN(S(=O)(=O)N3CC(C)CC(C)C3)C2)c1 (stereo not drawn)
i	1.2	O=c1c2ccccc2nc(SCc2nc3ccccc3s2)n1Cc1ccco1
i	0.32	CN1CCN(C(=S)c2ccc(OCC(=O)Nc3cccc(C(F)(F)F)c3)cc2)CC1
i	-1.4	O=C(Cc1ccccc1[N+](=O)[O-])Nc1ccc2c(c1)OCCO2

(more compounds)
KCNQ2 block	KCNQ2 block baseline	SMILES
i	0.78	CC(=O)Nc1cccc(Oc2ccc(-c3noc(C)n3)cc2)c1
i	-0.19	O=C(CSc1nc(C(F)(F)F)cc(=O)[nH]1)NCC1CCCO1 (stereo not drawn)
i	1.8	CN(C)S(=O)(=O)N(CC(=O)N(Cc1ccccc1)Cc1ccccc1)c1ccccc1
i	0.56	CC(C)(C)OC(=O)NC(CNCc1ccccc1)Cc1ccccc1 (stereo not drawn)
i	-1.1	COc1cc(OC)cc(C(=O)NCC(=O)Nc2ccc(-c3ccccc3)cc2)c1
i	0.02	COc1ccc(-c2cc3ncc(-c4ccccc4)c(N)n3n2)cc1
i	-0.23	CCOC(=O)N1CCN(S(=O)(=O)N2CCCC(C(=O)NCCCN3CCC(C)CC3)C2)CC1 (stereo not drawn)
i	0.02	O=C(C1CCN(c2nc3nonc3nc2N2CCCCC2)CC1)N1CCOCC1
i	-1.9	Cc1ccccc1OC(C)C(=O)NC1CCCC1 (stereo not drawn)
i	-2.3	CCCCCCCC(=O)Nc1cc(C(=O)NCc2ccc(C)cc2)ccc1N1CCC2(CC1)CC(c1ccccc1)=NO2
i	1	Cc1ccc(S(=O)(=O)N2CCCC(C(=O)Nc3ccc(NC(=O)c4ccccn4)cc3)C2)cc1 (stereo not drawn)
i	0.48	COc1ccccc1CN(Cc1nc2ccccc2c(=O)[nH]1)C(=O)Nc1ccccc1

Molecules from the list above containing two or more sulfur atoms, in the order listed:
KCNQ2 block	KCNQ2 block baseline	SMILES
i	-0.03	O=C(CSC1CS(=O)(=O)c2cc([N+](=O)[O-])ccc21)NNC(=O)c1ccc(Cl)cc1 (stereo not drawn)
i	-1.1	CCN(c1ccccc1)S(=O)(=O)c1cccc(C(=O)NCC(c2cccs2)N2CCOCC2)c1 (stereo not drawn)
i	0.01	CC(C)NC(=O)NC(=O)CSc1nncs1
i	1.2	O=c1c2ccccc2nc(SCc2nc3ccccc3s2)n1Cc1ccco1

Sorted by the number under KCNQ2 block baseline (highest first): 3 of the compounds above
mol	KCNQ2 block baseline
Cc1nc2ccc(C(=O)NCc3ccc4c(c3)OCO4)cc2s1	3
Cn1cc(S(=O)(=O)Nc2cccc3ccccc23)c(=O)n(C)c1=O	0.91
O=C(Nc1cccnc1)c1ccc2ccccc2c1O	-0.12

(next part)
KCNQ2 block	KCNQ2 block baseline	SMILES
i	-1.3	O=C(c1cc(COc2ccc(F)cc2Cl)on1)N1CCCCC1c1cccnc1 (stereo not drawn)
i	0.22	C=CCn1c(-c2cccnc2)n[nH]c1=S
i	-0.01	CCOc1ccc(-n2ccc(=O)c(C(=O)Nc3ccc(S(=O)(=O)Nc4ncccn4)cc3)n2)cc1
i	-0.91	Cc1cccn2c(=O)c(/C=C(\C#N)S(=O)(=O)c3ccccc3)c(N3CCN(Cc4ccccc4)CC3)nc12
i	3.2	O=C(Nc1ccc(OC(F)(F)F)cc1)c1[nH]ncc1[N+](=O)[O-]
i	3.1	Cc1ccc(C)c(N2CCN(S(=O)(=O)c3ccc4c(c3)CC(=O)N4C)CC2)c1
i	0.82	CCCCC(CC)Cn1c2nc3ccccc3nc2c2c(=N)oc(C)nc21 (stereo not drawn)
i	-0.92	CCCCN1C(=O)C(O)=C(C(C)=O)C1c1ccccc1[N+](=O)[O-] (stereo not drawn)
i	0.97	Cc1nc(S(=O)(=O)c2ccc(Cl)cc2)nc2c1CCC2
-7.6*	0.13*	Clc1ccccc1C(c1ccccc1)(c1ccccc1)n1ccnc1
i	0.93	Cc1cccc(NC(=O)/C(=C\c2cccs2)NC(=O)c2ccccc2)c1
i	0.71	COC(=O)Cc1n[nH]c(=S)[nH]c1=O

7 compounds from above, sorted by SMILES length, highest first:
KCNQ2 block	KCNQ2 block baseline	SMILES
i	-0.91	Cc1cccn2c(=O)c(/C=C(\C#N)S(=O)(=O)c3ccccc3)c(N3CCN(Cc4ccccc4)CC3)nc12
i	-0.01	CCOc1ccc(-n2ccc(=O)c(C(=O)Nc3ccc(S(=O)(=O)Nc4ncccn4)cc3)n2)cc1
i	3.1	Cc1ccc(C)c(N2CCN(S(=O)(=O)c3ccc4c(c3)CC(=O)N4C)CC2)c1
i	3.2	O=C(Nc1ccc(OC(F)(F)F)cc1)c1[nH]ncc1[N+](=O)[O-]
i	-1.3	O=C(c1cc(COc2ccc(F)cc2Cl)on1)N1CCCCC1c1cccnc1 (stereo not drawn)
i	0.82	CCCCC(CC)Cn1c2nc3ccccc3nc2c2c(=N)oc(C)nc21 (stereo not drawn)
i	0.22	C=CCn1c(-c2cccnc2)n[nH]c1=S

Next part.
KCNQ2 block	KCNQ2 block baseline	SMILES
i	0.7	CCN(CC)CCCN1C(=O)C(=O)/C(=C(/O)c2ccccc2)C1c1cc(OC)ccc1OC (stereo not drawn)
i	1.4	CCOc1ncccc1C(=O)N1CCN(S(=O)(=O)c2ccccc2)CC1
i	-0.46	Cc1cccc(NC(=O)C2(c3cccs3)CCOCC2)n1
i	-0.09	Cn1c(NCCN(CCO)CCCc2ccc([N+](=O)[O-])cc2)cc(=O)n(C)c1=O
i	-1.3	CCCCN1/C(=C/c2cccc[n+]2C)Sc2cc(NC(C)=O)ccc21
i	-1	CCc1nnc(NC(=O)CSc2ncc(-c3ccccc3)n2CC)s1
i	0.73	COc1ccc(C(=O)/C=C2/c3ccccc3CC(C)(C)N2C)cc1
i	0.11	COc1cc(C)ccc1OCCCOc1c(Cl)cccc1Cl
i	0.24	CCOC(=O)c1c(C)n(OC)c2ccc3c(no[n+]3[O-])c12
i	0.14	CS(=O)(=O)N(CC(=O)N1CCc2ccccc2C1)Cc1ccc(F)cc1
i	0.12	Cc1ccc(N2C(=O)C(CN(C)C)C2c2ccccc2)cc1 (stereo not drawn)
i	-0.17	Cc1ccc(-n2nc(C)c3c(C)cc(=O)[nH]c32)cc1
i	1.4	CNC(=O)CC1C(=O)N(c2ccc(OC)cc2)C(=S)N1NC(=O)c1cccc(F)c1 (stereo not drawn)
i	-0.05	COc1ccc(S(=O)(=O)N2CCCC2CNC(=O)C(=O)NCc2ccccc2Cl)cc1 (stereo not drawn)
i	0.04	Clc1ccc(C2=Nn3c(nnc3-c3n[nH]c4c3CCC4)SC2)cc1
i	1.4	CC(=O)c1cccc(NC(=O)CSc2nnc(C(C)N(C)C)n2-c2ccc(F)cc2)c1 (stereo not drawn)
i	-0.08	CCN(CC)CCn1c2c(c(SCC(=O)Nc3cccc4ccccc34)nc1=O)CCC2
i	-1.1	OC(CC#CCN1CCCC1)(c1ccccc1)c1ccccc1
i	-1.6	COc1ccc(C(C(=O)NC(C)(C)C)N(C(=O)CCC(=O)Nc2cc(C)on2)c2ccc(C)c(C)c2)cc1 (stereo not drawn)
i	-0.96	CN(C)CCOC(=O)C12CC3CC(C1)CC(C(=O)OCCN(C)C)(C3)C2
i	-1.7	O=C1[C@H]2[C@@H](c3ccc(F)cc3)N3C(=O)N(c4cccc(Cl)c4)C(=O)[C@@]3(Cc3ccccc3)[C@H]2C(=O)N1C1CCCCC1
i	-0.26	CCN(CC)S(=O)(=O)c1cccc(-c2nnc(SCC(=O)N3CCC(C(=O)O)CC3)n2N)c1
i	-0.19	COc1ccc(OC)c(CCNC(=O)CCc2cn(C)c3ccccc23)c1
i	-0.37	COc1ccc(C(=O)N2CCCC(Nc3ccc(C)c(C)c3)C2)cc1F (stereo not drawn)
i	-0.09	COc1ccc(C2Nc3ccccc3C(=O)N2NS(=O)(=O)c2ccccc2)cc1OC (stereo not drawn)
